# Hedgehog cleavage = Drosophila hedgehog isoform A inhibitors, primary screen, biochemical, plate reader, single concentration (AID 588832) | Biochemical plate reader assay, Hedgehog inhibition; active compounds read high | inhibition, % at 30.3 µM | 8,000 tested, under 10 active; in the data active = inhibition from about 57%;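 note: 0% = neutral control wells and 100% = positive control wells; cholesterol-driven self-cleavage of fly hedgehog protein by fluorescence polarization; read one hour after cholesterol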
# Numbers without * were called inactive. The list is partial. The share of hits here may be higher or lower than overall.
SMILES,Hedgehog cleavage
CCOC(=O)N1CCN(C(=O)CSc2nnc(COc3ccccc3)o2)CC1,0.0
CCOc1ccc(/C=N/NC(=O)c2ccccc2C)cc1CN1CC2CC(C1)c1cccc(=O)n1C2 (stereo unspecified),1.8
CCCC(=O)NCCCc1nc2ccccc2n1C(C)C,3.6
O=C(Oc1ccccc1)c1ccccc1C(=O)Oc1ccccc1,12.6
Cc1c2cnn(CC(=O)O)c(=O)c2c(C)n1Cc1ccccc1,19.1
COc1ccc(-c2nc(CS(=O)(=O)CC(=O)NCc3cccc(Br)c3)c(C)o2)cc1,0.9
Cn1c(=O)c2c(SCC(=O)Nc3ccc4c(c3)OCCO4)nc(CC(C)(C)C)nc2n(C)c1=O,1.7
CCC(C)c1ccccc1O (stereo unspecified),5.4
CCc1ccccc1NC(=O)C1=CC(c2ccc(OC)c(OC)c2)=NS(=O)(=O)N1C,5.8
Cc1noc(C)c1S(=O)(=O)N1CCC(C(=O)N2CCC(N3CCCCC3)CC2)CC1,8.4
COc1cc(C2C(c3ccccc3)C(c3cc(OC)cc(=O)o3)C2c2ccccc2)oc(=O)c1 (stereo unspecified),3.6
COc1ccc(C(c2sc3nc(C)nn3c2O)N2CCN(Cc3ccccc3)CC2)cc1OC (stereo unspecified),3.6
COc1ccccc1NC(=O)NCCN1C(=O)C2C3C=CC(C3)C2C1=O (stereo unspecified),17.4
Cc1ccc(CNC(=O)c2cc3c(=O)n(C)c4ccccc4c3n2C)cc1,25.0
O=C(NCCCN1CCOCC1)c1ccccc1N1C(=O)[C@@H]2Cc3c([nH]c4ccccc34)C(c3ccc(F)cc3)N2C1=O (stereo partly specified),4.9
Cn1c(=O)c(=O)n(C)c2cc(S(=O)(=O)N3CCCC3C(=O)Nc3ccccc3F)ccc21 (stereo unspecified),10.7
Cc1ccc(-c2nnc(NC(=O)c3c(F)cccc3Cl)s2)cc1,7.7
CC(CCc1ccco1)NC(=O)Cn1nc(Cc2ccncc2)c2ccccc2c1=O (stereo unspecified),3.4
COc1ccc(C2N(c3cc(Cl)ccc3OC)C(=O)C3CCCN32)cc1 (stereo unspecified),25.0
CC(=O)NCCn1c(C)cc2ccccc21,0.0
Cc1cc(C)n2nc(S(=O)(=O)N(CC(C)C)CC(C)C)nc2n1,10.7
CC(C)n1c(SCCCc2ccccc2)nc2c1c(=O)[nH]c(=O)n2C,4.6
CC1CCCN(C(=O)C(Cc2ccccc2)n2cccc2)C1 (stereo unspecified),-0.9
CCCCc1cc(=O)oc2c(C)c(OCC(=O)NCC3CCC(C(=O)O)CC3)ccc12 (stereo unspecified),8.7
COc1ccccc1CNC(=O)c1cc(S(=O)(=O)N2CCOCC2)cn1C,9.1
COc1ccc(Cl)cc1NC(=O)CSc1nnc(Cc2cccn2C)n1-c1ccc(F)cc1,20.8
Cc1[nH]c2ccccc2c1Cc1nnc(SCC(=O)NCc2ccco2)o1,0.8
CC(=O)c1ccc(N2CCN(S(=O)(=O)c3cc4[nH]c(=O)c(=O)[nH]c4cc3C)CC2)cc1,-10.0
CCOc1ccc2nc(NC(=O)C3CCCN(S(=O)(=O)c4c(C)noc4C)C3)sc2c1 (stereo unspecified),6.5
COC(=O)CCCCC(=O)OC,3.6
Cc1onc(-c2ccccc2Cl)c1C(=O)Nc1nnc(-c2cccc([N+](=O)[O-])c2)s1,0.9
c1ccc(Cc2nnc3sc(-c4ccco4)nn23)cc1,25.0
O=C(CSC1=NS(=O)(=O)c2ccccc21)Nc1ccccc1,0.9
CCOC(=O)N1CCC(N2C(=O)c3ccccc3C2Nc2ccc3c(c2)OCCO3)CC1 (stereo unspecified),17.4
O=C(Nc1ccc(Cl)cc1)c1ccc2snnc2c1,-0.9
Cc1ccc(C2=NS(=O)(=O)N(C)C(C(=O)Nc3ccc(F)cc3F)=C2)cc1,8.4
CCOc1ccc(C(=O)O)cn1,5.1
CCOCCn1c(SCc2cccc(C)c2)nc2c1c(=O)[nH]c(=O)n2C,19.1
CCc1ccccc1NC1c2ccccc2C(=O)N1Cc1ccco1 (stereo unspecified),3.5
Cn1cc(S(=O)(=O)N2CCN(Cc3ccccc3)CC2)c(=O)n(C)c1=O,7.1

# Looked up by structure from the entries so far, two records:
SMILES,Hedgehog cleavage
CCOC(=O)N1CCC(N2C(=O)c3ccccc3C2Nc2ccc3c(c2)OCCO3)CC1 (stereo unspecified),17.4
Cc1ccc(CNC(=O)c2cc3c(=O)n(C)c4ccccc4c3n2C)cc1,25.0

# 4 compounds already listed, ordered by the number in Hedgehog cleavage, ascending.
SMILES,Hedgehog cleavage
O=C(Nc1ccc(Cl)cc1)c1ccc2snnc2c1,-0.9
CC(CCc1ccco1)NC(=O)Cn1nc(Cc2ccncc2)c2ccccc2c1=O (stereo unspecified),3.4
Cn1cc(S(=O)(=O)N2CCN(Cc3ccccc3)CC2)c(=O)n(C)c1=O,7.1
Cc1ccc(-c2nnc(NC(=O)c3c(F)cccc3Cl)s2)cc1,7.7

# (list continues)
SMILES,Hedgehog cleavage
Cc1nc2sc(C(c3ccc(C(C)C)cc3)N3CCN(CCO)CC3)c(O)n2n1 (stereo unspecified),6.8
COc1ccc(OC)c2sc(NC(=O)C(C)C)nc12,7.3
CC(CNCc1ccc2c(c1)OCO2)NCc1ccc2c(c1)OCO2 (stereo unspecified),3.6
CCc1ccccc1NC(=O)C1=CC(c2cccs2)=NS(=O)(=O)N1C,5.5
Cn1c(=O)c2c(SCC(=O)NCc3ccco3)nc(CC(C)(C)C)nc2n(C)c1=O,1.9
O=C(CCC(=O)N1CCOc2ccccc21)NCCCN1CCCCC1,10.9
Cc1cc2cc(CNC(=O)c3ccc(S(=O)(=O)N(C)C)cc3)ccc2n1C,3.5
CCOC(=O)C1CCN(S(=O)(=O)c2ccc3c4c(cccc24)C(=O)N3)CC1,1.8
Cn1cc(S(=O)(=O)N2CCOCC2)cc1C(=O)Nc1ccc(Cl)cc1,3.6
O=c1cc(-c2ccc(O)cc2)oc2c(-c3c(O)cc(O)c4c(=O)cc(-c5ccc(O)cc5)oc34)c(O)cc(O)c12,3.5
CCOC(=O)C1CCN(S(=O)(=O)c2ccc3[nH]c(=O)ccc3c2)CC1,6.8
COc1ccc2ccc(=O)oc2c1CC=C(C)C,-1.7
COc1ccc(-n2c(SCC(=O)Nc3nccs3)nc3c(c2=O)SC(C)C3)cc1 (stereo unspecified),5.1
COc1cccc(NC(=O)CN2C(=O)COc3ccc(Cl)cc32)c1,12.5
Cc1cc2cc(CNC(=O)c3ccc(S(=O)(=O)N4CCCCC4)cc3)ccc2[nH]1,5.4
COc1ccc(C2=NS(=O)(=O)N(C)C(C(=O)NC3CCCC3)=C2)cc1,0.0
O=C(NCc1ccc(Cl)cc1)C1CCN(c2nnc(N3CCCC3=O)s2)CC1,3.4
O=C(CN1C(=O)COc2ccc(S(=O)(=O)N3CCCCCC3)cc21)NCc1ccc(F)cc1,23.4
CCOc1ccc(CC(=O)Nc2c(C(N)=O)oc3ccc(Br)cc23)cc1OCC,5.2
O=C1c2ccccc2C(Nc2ccccc2)N1c1ccc(Cl)cn1 (stereo unspecified),5.1
CCCCn1c(CNC(=O)C23CC4CC(CC(C4)C2)C3)nnc1SCC(=O)Nc1nnc(C)s1,3.6
COc1ccc(CCNC(=O)CC2Oc3ccc(Cl)cc3NC2=O)cc1OC (stereo unspecified),20.0
O=C(NCCc1csc(-c2cccnc2)n1)c1ccc(Br)o1,0.1
COc1cccc(C2CC(c3ccc(C(C)C)cc3)n3nc(N)nc3N2)c1 (stereo unspecified),25.0
O=c1c(-c2ccc(O)cc2)coc2cc(O)cc(O)c12,0.0
COc1cccc(CNC(=O)c2cccc(NC(=O)C3=C(C)OCCS3)c2)c1,5.1
Cc1cc(NC(=O)CSc2cn(CCNC(=O)c3ccc(Cl)cc3)c3ccccc23)no1,3.6
Cc1c(C(=O)Nc2ccncc2)sc2nc(-c3ccc(F)cc3)cn12,-1.7
CCCn1c(CN2CCN(C(=O)OCC)CC2)nc2c1c(=O)n(C)c(=O)n2C,4.4
CC(C)CNc1oc(-c2ccc(F)cc2)nc1C#N,16.7
COc1ccc(Nc2nc(N)nc(CN3CCC(Cc4ccccc4)CC3)n2)cc1,3.5
Cc1ccc(CNC(=O)CS(=O)Cc2nc(-c3ccccc3C)oc2C)cc1 (stereo unspecified),-1.8
Cc1ccc(CNC(=O)CCS(=O)(=O)c2cc3c(cc2Cl)NC(=O)CO3)o1,8.7
CCN(CCCNS(=O)(=O)c1ccc2c(c1)oc(=O)n2C)c1cccc(C)c1,0.0
CCCN1CCN(C(=O)CCc2nnc3ccc(N4CCN(c5cccc(OC)c5)CC4)nn23)CC1,20.0
CCC(=O)Nc1nc2c(OC)ccc(OC)c2s1,5.4
CSc1oc(-c2ccc(F)cc2)nc1S(=O)(=O)c1ccc(F)cc1,5.4
CN1CCc2c(sc(NC(=O)C3CCCCC3)c2C(N)=O)C1,-1.9
CCOC(=O)C1CCCN(C(=O)c2cn(CC)c3ccc(S(=O)(=O)N(C)C)cc3c2=O)C1 (stereo unspecified),29.2
COc1ccc(-c2nc(CN3CCC(C(=O)N4CCc5ccccc54)CC3)c(C)o2)cc1OC,5.4

# A draw from above in order of length of the SMILES, lowest first:
SMILES,Hedgehog cleavage
CN1CCc2c(sc(NC(=O)C3CCCCC3)c2C(N)=O)C1,-1.9
CSc1oc(-c2ccc(F)cc2)nc1S(=O)(=O)c1ccc(F)cc1,5.4
COc1ccc(Nc2nc(N)nc(CN3CCC(Cc4ccccc4)CC3)n2)cc1,3.5
Cc1ccc(CNC(=O)CCS(=O)(=O)c2cc3c(cc2Cl)NC(=O)CO3)o1,8.7
CCCN1CCN(C(=O)CCc2nnc3ccc(N4CCN(c5cccc(OC)c5)CC4)nn23)CC1,20.0
CCOC(=O)C1CCCN(C(=O)c2cn(CC)c3ccc(S(=O)(=O)N(C)C)cc3c2=O)C1 (stereo unspecified),29.2

# Later entries
SMILES,Hedgehog cleavage
CCCc1cc(=O)oc2c3c(cc(OCC(=O)NCCCn4ccnc4)c12)OC(C)(C)CC3,0.0
CC1=CC(C)(C)Nc2ccccc21,3.6
CN(C)CCCN1C(=O)c2oc3ccc(F)cc3c(=O)c2C1c1cccnc1 (stereo unspecified),3.6
Cc1c(C)c2c(OCC(=O)NCc3ccco3)cc3c(c2oc1=O)CCC(C)(C)O3,8.2
Cc1ccc(/C=C/c2onc(C)c2S(=O)(=O)N2CCC(C(=O)N3CCCCC3)CC2)cc1,5.2
CCN(Cc1ccccc1)S(=O)(=O)c1cc(C(=O)OC)n(C)c1,6.7
COc1ccc(CC(=O)NCc2nnc(SCC(=O)Nc3nccs3)n2-c2ccccc2)cc1,-1.8
CC(=O)c1ccc(NC(=O)c2cc(CC(C)C)on2)cc1,6.4
CCSc1nnc2c(n1)OC(c1ccc(C(=O)O)cc1)N(C(C)=O)c1ccccc1-2 (stereo unspecified),0.8
O=C(O)c1cccc(NC(=O)c2ccccc2NC(=O)c2ccco2)c1,4.9
Cc1cccc(N2CCN(C(=O)c3noc4c3COc3ccc(C)cc3-4)CC2C)c1 (stereo unspecified),10.2
COc1ccc(-n2c(Cc3cccn3C)nnc2SCC(=O)N2CCCC2)cc1,12.5
COc1cc(OC)c(N(C)C(=O)c2cc3c(s2)-c2ccccc2S(=O)(=O)C3)cc1Cl,1.8
COc1ccc(C)cc1NC(=O)C(CCS(C)(=O)=O)NC(C)=O (stereo unspecified),-0.9
O=C(NCc1cn2ccsc2n1)c1cccs1,5.3
COc1ccc(C(c2c(NC(C)=O)sc3c2CCCC3)N2CCN(CCO)CC2)cc1OC (stereo unspecified),7.3
CC1CN(C(=O)CCC(=O)NCc2cccnc2)c2ccccc2O1 (stereo unspecified),3.4
O=C(C1CC(c2ccc(F)cc2)=NO1)N1CCN(Cc2ccccc2)CC1 (stereo unspecified),5.0
O=C1OC(N2C(=O)CC[C@H]2C(=O)Nc2ccc(Br)cc2F)c2ccccc21 (stereo partly specified),-1.6
Cc1ccc2c(c1)NC(=O)C(CC(=O)NCCCN1CCCCC1)O2 (stereo unspecified),10.0
CC(C)c1ccc(NC(=O)Cc2ccc(NC3=NC4CS(=O)(=O)CC4S3)cc2)cc1 (stereo unspecified),10.9
C=C1CCC(C)C(C)(CCC2=CCOC2=O)C/C=C\C=C/1C(=O)O (stereo unspecified),10.3
CCOC(=O)C(CC)Sc1nc(N)c(NC(=O)c2ccc(OC)c(OC)c2)c(=O)[nH]1 (stereo unspecified),7.3
COC(=O)CCCC(=O)OC,3.3
Cc1ccc(NC(=O)CSc2nc3ccccc3nc2N2CCOCC2)cc1,8.8
CCCNC(=O)C1=C(C)C(=O)OC12CCC(C)CC2 (stereo unspecified),9.5
CCn1c(=NC(=O)CSC(C)=O)sc2cc(OC)ccc21,0.0
COc1ccc(-c2nc(Cn3c(SCc4ccc(F)cc4)nc4ccncc43)c(C)o2)cc1OC,5.2
O=S(=O)(NCc1ccc2c(c1)OCO2)c1cnc[nH]1,6.7
O=S(=O)(Nc1cccc(-c2nc3cccnc3s2)c1)c1ccc2c(c1)CCCC2,11.5
Cc1ccc(NC(=O)C2CCCN(S(=O)(=O)c3ccc4[nH]c(=O)ccc4c3)C2)c(C)c1 (stereo unspecified),20.0
Cc1c(C(=O)O)nn(-c2ccccc2)c(=O)c1C#N,1.7
COCCCNc1oc(-c2ccccc2F)nc1C#N,20.0
Nc1ccc2cc3ccccc3cc2c1,5.4
CCOC(=O)c1oc2cc(O)cc(O)c2c(=O)c1OCc1ccccc1,1.7
Cc1nc(SCC(=O)NCc2ccccc2)c2c(=O)n(C)c(=O)n(C)c2n1,3.6
Cc1cccc(NS(=O)(=O)c2cc3c(cc2C)n(C)c(=O)c(=O)n3C)c1,20.0
Cn1cccc1Cc1nnc(SCC(=O)Nc2ccc3c(c2)OCCO3)n1-c1ccc(F)cc1,10.7
CC1CC(C)CN(C(=O)CSCC(=O)Nc2nc(-c3cccs3)cs2)C1 (stereo unspecified),7.2
COc1cc(C(=O)O)c2c(c1C)OC(=O)c1c(C)cc(O)c(C=O)c1O2,8.6
Cc1cccc(N2CCN(C(=O)Cn3nc(Cc4ccncc4)c4ccccc4c3=O)CC2)c1C,-1.8
Cc1c(C)c2c(OCC(=O)N3CCC[C@H]3C(=O)O)cc3c(c2oc1=O)CCC(C)(C)O3,5.1
CC1=C(C(=O)N(C)Cc2ccccc2)C2(CCC(C)CC2)OC1=O (stereo unspecified),8.0

# Screening data (PubChem)
